Sfp PPTase inh: Sfp phosphopantetheinyl transferase inhibition; Biochemical Sfp PPTase activity, qHTS; Potency, µM, for the others: max response, negative = inhibition, actives largely listed as inhibitors; Q9F4F7; 310,000 compounds, 3.5% hits; active = well fitted inhibition curve with a large enough effect; inconclusive = small, poorly fitted or top-dose-only effect, or another doubt; inactive = no such curve, though single readings can be large or run the other way;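 note: the enzyme is Sfp with the accession as filed and its product quenches rhodamine fluorescence; potency is the fitted concentration of half-maximal effect; 0% = enzyme reaction without inhibitor and -100% = no enzyme wells; top concentration of the series not given in the record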
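Buffer: 50 mM Hepes-Na pH 7.6, 10 mM MgCl2, 0.01% Nonidet P-40, 0.01% BSA. Enzyme 15 nM, pre-exposed to compound 15 min; substrates then added and fluorescence change tracked over 30 min.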
PINK1 modulator: modulators of PINK1 expression. PINK1 immunofluorescence, high-content cytometry, 24 h. Potency, µM (highest dose often 76.6 µM), for the others: top-dose activation (PINK1 increase), actives largely listed as activators. 410,000 compounds, 0.2% hits. AID 624263; active = well fitted activation curve with a large enough effect; inconclusive = small, poorly fitted or top-dose-only effect; inactive = flat fitted curve, though single readings scatter; cell line not stated here;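 note: potency is the fitted concentration of half-maximal effect; % of control where 0% means no effect; nearly all actives have a fitted effect of over 65% in size; a mitochondrial uncoupler was the plate control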
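Stable cell line, 250 cells/well, 12 h attachment; compounds pinned at 5 concentrations, 24 h; CCCP control. Fixed with nuclear dye, primary antibodies 12 h at 10 degrees C, secondary plus cell stain; laser-scanning cytometer read.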
Menin-MLL FL inh: menin-MLL binding inhibition, fluorescein peptide | Fluorescence polarization, fluorescein-MLL peptide displacement from menin | FP activity change, % at 61.4 µM | 290,000 tested, under 10 active; inconclusive = falling polarisation curve, or a change in total fluorescence; inactive = total fluorescence flat and polarisation flat or rising; no compound was filed as active; the % refers to the polarisation; negative = inhibition;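 note: % of control where 0% means no effect; inhibitors lower the polarisation; unlabelled MLL peptide was the positive control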
gsp antag: gsp mutant antagonism; gsp-mutant cells, cAMP HTRF, 30 min; control for the full effect not named in the record; Potency, µM (titrated, usually from 76.9 µM), inactives show at the highest dose activity change, negative = inhibition, hits mostly inhibitors; 340,000 compounds, 0.4% hits; active = falling curve of any shape with a large fitted effect; inconclusive = falling curve, mostly with a smaller effect; inactive = flat or rising curve; cell line not stated here;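 note: intracellular cAMP measured with PDE inhibitor Ro 20-1724 present during compound exposure; potency is the fitted concentration of half-maximal effect; % is set by controls: 0 for no effect and ±100 for the full control effect; nearly all actives have a fitted effect of over 65% in size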
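Cells, 2000/well, grown 16–24 h in DMEM 10% FBS with 0.5 mg/ml G418, then compounds plus […] (300 uM addition stock), 30 min at 37C. cAMP read by HTRF (cAMP-d2 and anti-cAMP antibody-K in lysis buffer) after 30 min RT.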
ClpP mod: qHTS Assay for Activators of ClpP. ATP-dependent Clp protease proteolytic subunit (Bacillus subtilis (strain 168)), P80244. purified B. subtilis ClpP, FRET peptide cleavage, 20 min. Potency, µM (highest dose often 57.5 µM), without a hit: at the top dose activity change, negative = active. 340,000 compounds, 1.9% hits. AID 651965, 2013; active = well fitted falling curve with a large enough effect; inconclusive = small, poorly fitted or top-dose-only effect; inactive = no such curve, though single readings can be large or run the other way; note: potency is the fitted concentration of half-maximal effect; the source files actives as falling curves though it sought activators and does not explain the sign; nearly all actives have a fitted effect of over 65% in size; many hits overshoot -100%
Target sequence (P80244 whole entry, looked up): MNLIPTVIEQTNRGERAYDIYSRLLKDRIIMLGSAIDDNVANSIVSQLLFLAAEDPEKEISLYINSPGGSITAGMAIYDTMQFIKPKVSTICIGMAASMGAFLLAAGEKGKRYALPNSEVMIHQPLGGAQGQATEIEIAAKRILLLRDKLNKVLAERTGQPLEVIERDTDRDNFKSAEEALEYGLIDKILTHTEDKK
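ClpP 10 microg/mL final, pH 8 Tris/KCl buffer with BSA, glycerol, Tween-20; compound pinned in; FRET-FV substrate; RT 20 min; Ex320/Em430; ΔFRET vs ADEP 5.8 microM, DMSO, no enzyme.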
D2 agonist: human D2 receptor agonism in beta-arrestin assay; DiscoveRx PathHunter D2 beta-arrestin, luminescence, 90 min; 100% = 57 uM dopamine signal; activation, % (no concentration beside the values); P14416; 360,000 compounds, 0.084% hits; in the data active = activation above about 40%; inconclusive = about 15% to 40%; inactive = below about 15%; note: compound concentration not given in the record; the text of the record calls up to 30% inactive
Target sequence (P14416 whole entry, looked up): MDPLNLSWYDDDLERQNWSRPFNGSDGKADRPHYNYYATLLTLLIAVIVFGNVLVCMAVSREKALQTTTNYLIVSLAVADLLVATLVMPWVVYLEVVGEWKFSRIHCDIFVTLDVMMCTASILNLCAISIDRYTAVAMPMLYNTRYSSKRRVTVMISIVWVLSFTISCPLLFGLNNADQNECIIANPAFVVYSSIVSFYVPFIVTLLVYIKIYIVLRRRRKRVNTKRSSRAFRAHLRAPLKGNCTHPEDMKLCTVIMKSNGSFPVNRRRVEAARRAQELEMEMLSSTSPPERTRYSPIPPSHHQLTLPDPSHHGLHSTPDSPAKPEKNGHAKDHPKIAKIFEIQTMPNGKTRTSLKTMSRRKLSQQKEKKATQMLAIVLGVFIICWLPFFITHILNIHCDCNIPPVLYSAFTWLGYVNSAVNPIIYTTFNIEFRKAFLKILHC
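Agonist mode: compounds alone added to overnight-plated D2 PathHunter cells for 90 min at 37 C, with 57 uM final dopamine (EC100) defining full response. Beta-arrestin recruitment detected by chemiluminescent reagent, read after 1 h at ambient temperature.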
gsp ag: gsp mutant agonism. gsp mutant cells, cAMP HTRF, 30 min; control for the full effect not named in the record. Potency, µM (highest dose often 76.9 µM), for the others: top-dose activation (cAMP increase), hits mostly activators. 340,000 compounds, 0.13% hits. AID 624287; active = well fitted activation curve with a large enough effect; inconclusive = small, poorly fitted or top-dose-only effect, or another doubt; inactive = no such curve, though single readings can be large or run the other way; cell line not stated here;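 note: phosphodiesterase inhibitor Ro 20-1724 added with compounds to block cAMP breakdown; potency is the fitted concentration of half-maximal effect; nearly all actives have a fitted effect of over 60% in size; about a fifth of the inactives were tested at one dose only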
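Cells stably selected in G418 were plated at 2000/well, grown 16-24 hr, then given compounds in DMSO with the PDE inhibitor […] (300 uM solution added) for 30 min at 37C; cAMP was read by HTRF.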
An asterisk follows results filed as active; ? = inconclusive; . = no result given; & = joins results of further samples; [ ] = dose if it differs, or a comment. Some of the compounds tested; the hit share may differ from the screen's.

SMILES	Sfp PPTase inh	PINK1 modulator	Menin-MLL FL inh	gsp antag	ClpP mod	D2 agonist	gsp ag
Cc1[nH]c2c(Cl)cccc2c(=O)c1CN1CCCCCC1	1%	0.6%	0.3	5%	-1.8%	-1.4	6%
O=C1NC(=O)C(=Cc2cn(CCOc3ccc4c(c3)OCO4)c3ccccc23)C(=O)N1	-14%	?	?	6%	1.0%	-2.2	?
COc1cc2c(cc1OC)C(c1c(O)n(CCc3ccccc3)c(=S)[nH]c1=O)NCC2 (configuration not stated)	5%	2.0%	12	13%	.	-4.1	6%
CC(=O)O[C@H]1[C@H]2O[C@]23[C@@H]2CC[C@]4(O)C[C@@H](O)CC[C@]4(C)C2CC[C@]3(C)[C@H]1c1ccc(=O)oc1 (some centres not stated)	.	-1.1%	.	3%	-1.9%	0.4	-4%
CCC(=O)Nc1ccc(Cl)c(Cl)c1	1%	3.4%&2.0%	-0.4	-5%	-0.6%	-2.7	.
CCc1ccc(CNCCc2ccc(F)cc2)cc1	?	9.9%	-1.4	-10%	2.0%	-7.4	-2%
c1cncc(CNCCc2c[nH]c3ccccc23)c1	6%	1.1%	-0.1	11%	.	1.2	28%
Clc1ccccc1Nc1ncnc(-n2cccc2)n1	-10%	-1.1%[38.3 µM]	2.2	-18%	0.1%	-1.0	-29%
CC(C)CC12CN3CCN(CC(C3)/C1=N/O)C2	14%	39%[38.3 µM]	3.7	16%	-4.3%	0.8	2%
O=C(COC(=O)c1cccc(O)c1)Nc1ccc(Cl)cc1C(=O)c1ccccc1	-7%	4.5%	7.8	?	0.6%	5.6	-1%
O=C1NC(=S)SC1=Cc1ccc(N(CCCl)CCCl)cc1	.	3.0%	.	?	.	-2.6	-72%[inhibitor]
CCCCCCn1c(O)c(C=Nc2c(C)n(C)n(-c3ccccc3)c2=O)c(=O)[nH]c1=O	7%	-0.5%	3.1	-15%	-2.3%	1.6	-70%[inhibitor]
CCC(=NCCc1ccccc1)c1c(O)n(C2CCCCC2)c(=O)[nH]c1=O	3%	20%	4.5	-5%	-0.9%	1.8	-14%
COC(=O)N(c1ccccc1)P1(=S)OCCO1	5.6µM*	-0.3%	-1.3	12%	-0.3%	-6.0	-11%
CC[C@H]1CC2CN3CCc4c([nH]c5ccccc45)C(C(=O)OC)(C2)C13 (some centres not stated)	.	14%	.	-1%	0.0%	3.9	.

Of the compounds above, these contain four or more nitrogen atoms:
SMILES	Sfp PPTase inh	PINK1 modulator	Menin-MLL FL inh	gsp antag	ClpP mod	D2 agonist	gsp ag
Clc1ccccc1Nc1ncnc(-n2cccc2)n1	-10%	-1.1%[38.3 µM]	2.2	-18%	0.1%	-1.0	-29%
CCCCCCn1c(O)c(C=Nc2c(C)n(C)n(-c3ccccc3)c2=O)c(=O)[nH]c1=O	7%	-0.5%	3.1	-15%	-2.3%	1.6	-70%[inhibitor]

Next compounds:
SMILES	Sfp PPTase inh	PINK1 modulator	Menin-MLL FL inh	gsp antag	ClpP mod	D2 agonist	gsp ag
CCCCCCC(=O)c1c(O)n(-c2ccc(OC)cc2)c(=O)[nH]c1=O (tested in a mixture with another compound)	13%	1.5%	3.5	-10%	-2.2%	-5.0	26%
CC1=CC(=C2C(=O)NC(=O)NC2=O)C=C(C(F)(F)F)N1C(C)C	12%	-2.8%	-1.5	9%	-2.3%	-0.3	-18%
CCCNC(=O)N1[C@H]2CC[C@@H]1C(C(=O)OC)=C(c1ccccc1)C2	.	2.0%	.	2%	-0.1%	-1.5	.
S=C(NCCc1ccccc1)N1Cc2ccc(Br)cc2-n2nncc2C1	.	-0.7%	.	.	-1.5%	-2.3	.
Cc1ccc(-c2nc3ccccc3c(=O)n2-c2cccc(C)n2)cc1	3%	-0.6%	5.4	-10%	.	6.4	-17%[15.4 µM]
c1ccc(CC2CCCCN2)cc1 (configuration not stated)	13%	1.2%	-1.1	7%	-1.3%	-0.3	13%[15.4 µM]
COc1ccc(-n2nnnc2C(CCSC)N2CCC(n3c(=O)[nH]c4ccccc43)CC2)cc1 (configuration not stated)	.	-1.6%	.	.	2.0%	2.7	.
COc1ccc(-c2ccc3c(c2)CN(C(=S)NCCc2ccccc2)Cc2cnnn2-3)cc1	.	0.8%	.	.	5.2%	3.5	.
O=C(c1ccc(-c2ccccc2)c(F)c1)C1CCCN(CCO)C1 (configuration not stated)	0%	-0.7%	0.4	18%	.	1.7	12%[15.4 µM]
O=C(Cc1ccccc1)N1CCN(Cc2ccccn2)CC1	56µM*	0.7%	2.4	15%	0.0%	-4.7	12%[15.4 µM]
Cc1ccc(NS(=O)(=O)c2ccc(Cl)c(N=Nc3c(O)[nH]c(=O)[nH]c3=O)c2)cc1Cl	.	2.6%	.	?	0.1%	-5.2	?
O=C1NC(=O)N(c2ccc3c(c2)OCO3)C(=O)/C1=C/c1ccsc1	40µM*	1.0%	22	-9%	-2.7%	-5.1	-25%
O=C(c1cc(F)ccc1F)C1CCCN(CCCc2ccccc2)C1 (configuration not stated)	3%	4.7%	2.9	-11%	.	-4.6	-8%[15.4 µM]
COC(=O)C1=C(c2ccccc2OCc2ccccc2)C[C@@H]2CC[C@H]1N2C(=O)NCc1ccc(C(F)(F)F)cc1	.	0.3%	.	?	-2.7%	-4.8	-4%
COC[C@H]1OC(=O)c2coc3c2[C@@]1(C)C1=C(C3=O)C2CCC(=O)[C@@]2(C)C[C@H]1OC(C)=O (some centres not stated)	?	3.9%	?	.	-3.6%	.	.
COc1ccc(C2SCC(=O)Nc3c2c(C)nn3-c2ccccc2)cc1 (configuration not stated)	3%	3.0%	-4.6	0%	-0.1%	-3.0	9%
O=c1c2ccccc2nc(SCC2CCCCO2)n1-c1ccccc1 (configuration not stated)	0%	21%	7.9	7%	0.7%	1.6	15%
COc1ccc(-n2c(/C=C/c3ccc4c(c3)OCO4)nc3ccccc3c2=O)cc1	-23%	0.2%	4.4	-8%	-14%	0.4	-6%
CCN1CCN(C(=O)COc2cc(=O)n(CC)c3ccccc23)CC1	15%	1.3%	0.4	9%	-11%	-3.6	0%
CC12CCC(O)CC1CCC1C2CCC2(C)C(C3=CC(=O)OC3)C(O)CC12O (configuration not stated)	.	-6.4%	.	3%	-3.3%	-0.6	-17%
COc1ccc(Cl)cc1C(=O)C1CCCN(CCO)C1 (configuration not stated)	-8%	2.0%	6.4	10%	.	-0.7	-36%[inhibitor]
O=C1NC(=O)N(Cc2ccco2)C(=O)/C1=C/c1ccc(-c2cccc([N+](=O)[O-])c2)o1	20µM*	-1.9%	4.8	-6%	1.4%	-1.3	2%
O=[N+]([O-])c1cccc(CN2CCN(Cc3ccc(Cl)cc3)CC2)c1	?	4.4%	-4.5	0%	.	-2.5	1%[15.4 µM]
CCC(=NCC1CCCO1)c1c(O)n(Cc2ccccc2)c(=O)[nH]c1=O (configuration not stated)	-2%	-2.0%	0.9	-4%	-1.3%	-0.6	-26%
c1cnc(N2CCC3(CCNCC3)CC2)nc1	?	-0.6%	4.7	.	.	.	.
Cc1ccsc1C(=O)C1CCCN(Cc2cnn(C(C)C)c2)C1 (configuration not stated)	7%	-0.2%	-0.7	34%[activator]	-1.8%	-8.7	35%
O=c1[nH]c(=O)n(CCc2ccccc2)c(O)c1/C=N/N1CCOCC1	14%	3.5%	1.8	-4%	-0.8%	-2.2	-9%
O=C(C1CC(=O)N(c2ccc(F)c(Cl)c2)C1)N1CCC2(CC1)OCCO2 (configuration not stated)	12%	.	8.0	-1%	0.6%	-2.1	7%
CC1=Nc2cc(C(=O)N3CCC4(CC3)OCCO4)ccc2Sc2ccc(Cl)cc21	1%	0.2%	-4.6	-3%	1.6%	1.0	?
CCN1CCN(c2nc([N+](=O)[O-])nn2C)CC1	10%	-1.6%	-2.3	-5%	.	5.5	-18%
CC(C)c1ccc(-n2c(O)c(/C=N/NC(=O)c3ccccc3O)c(=O)[nH]c2=S)cc1	-30%	0.9%	?	-15%	-11%	-7.6	32%
Cc1nc(CCl)cc(=O)[nH]1	-6%	0.9%	-0.9	3%	.	-0.4	0%
CCn1c(N)c(C(=O)NC)sc1=S	2.2µM*	1.7%	2.7	6%	1.8%	-3.1	-3%
CS(=O)(=O)N1CCN(C(=N)N[N+](=O)[O-])CC1	14%	-0.8%	0.4	12%	.	-3.3	-4%[15.4 µM]
CN1CCCC(C(O)(c2ccccc2)c2ccccc2)C1 (configuration not stated)	8%	1.5%	4.8	8%	-1.3%	-6.4	0%
Cc1ccc(N2C(=O)NC(=O)/C(=C\c3ccc(N4CCOCC4)cc3)C2=O)cc1	18µM*	0.9%	29	-8%	?	1.9	-23%
CCOC(=O)c1c(C)n(CC(O)CN2CCOCC2)c2cc(Br)c(OC)cc12 (configuration not stated)	-16%	2.3%	4.6	-22%	.	5.6	24%[15.4 µM]
O=C1NC(=O)C(=Cc2csc3ccccc23)C(=O)N1	18µM*	7.0%	-2.1	-9%	-0.9%	6.3	23%
NP(=O)(OCCCc1ccccc1)Oc1ccccc1 (configuration not stated)	6%	2.3%	-1.9	19%	2.3%	-0.2	-10%
CCN1CCN(C(c2cccs2)C(C)NC(=O)Oc2ccccc2)CC1 (configuration not stated)	-8%	0.9%	0.2	9%	0.5%	-2.8	-31%[inhibitor]
CCOc1ccccc1Oc1coc2cc(OC(=O)N(C)C)ccc2c1=O	8%	4.4%	3.3	0%	1.3%	-8.5	-13%
O=C1CCN(C(=O)CCCn2c(=O)oc3ccccc32)CC1	11%	-1.3%	-6.2	0%	0.2%	1.0	23%[15.4 µM]
Cc1nc2cc(F)ccc2n1C1CCN(Cc2nnnn2CCc2ccccc2)CC1	0%	-0.7%	4.2	-1%	21%	-1.3	4%
O=c1[nH]c(=O)n(-c2ccccc2)c(O)c1/C=C1/C(c2ccccc2)=Nc2ccccc21	-9%	20%	7.7	14%	-7.8%	-1.5	-24%
COP(=O)(OC)C1(O)C(=O)Nc2ccc(Br)cc21 (configuration not stated)	-1%	-2.6%	-1.0	9%	2.2%	-8.3	1%

Screening results (PubChem BioAssay)
